Biofilm kill mix: mixture kills Candida albicans biofilm cells; C. albicans biofilm persisters + clotrimazole, fluorescence viability; primary screen in compound mixtures of four per well; inhibition, % at 7.6 µM; actives 0.02% (n = 120,000);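 active = inhibition above 30.3% in the primary screen of four-compound pools, then above 30% when the compound was retested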;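 note: compounds exposed to preformed 24 h biofilms for 48 h; the number belongs to the whole pool; some results filed as inactive read as strong as hits; inactives centre near 12; 0% = biofilm with clotrimazole alone and 100% = kill control; retested singly at about 60 µM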
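System: C. albicans CAF4-2 wild-type biofilms; Medium: RPMI/MOPS medium, pH 7.0; Reagent: Clotrimazole, 50 µg/mL; Times: biofilm formation 24 h, compound exposure 48 h, 37 °C; Detection: 2-h Alamar Blue fluorescence, 535/590 nm excitation/emission; Evaluation: percent inhibition of biofilm viability.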
The depositor's hits bear a star; & = joins results of further samples.

Screening O=C(COc1cccnc1[N+](=O)[O-])Nc1ccccc1Sc1ccccc1 returned Biofilm kill mix 10.
Screening Cc1cc(C)c2c(N)c(C(=O)Nc3ncc(C)s3)sc2n1 returned Biofilm kill mix 5.
C/C(CC(=O)Nc1ccc2c(c1)OCCO2)=N\NC(=O)C(=O)Nc1ccccc1C was read as Biofilm kill mix 16.
`COc1ccc2c(c1)O[C@@H](c1ccc3c(c1)OCO3)[C@H](OC(=O)Nc1cc(OC)c(OC)c(OC)c1)C2=O` gave Biofilm kill mix 14.
Screening CCc1ccc(Cc2cnc(NC(=O)C3=NCCN3)s2)cc1 returned Biofilm kill mix 3.
`COc1ccc(/C=C2\SC(=N)N(c3nccs3)C2=O)cc1OC` gave Biofilm kill mix 15.
`Cc1cc(NN)nc(NS(=O)(=O)c2ccccc2Cl)n1` gave Biofilm kill mix 4.
`CCS(=O)(=O)C(=C1Nc2ccccc2N1)S(=O)(=O)CC` gave Biofilm kill mix 8.
Screening Cn1cnnc1Sc1ccc(C(F)(F)F)cc1[N+](=O)[O-] returned Biofilm kill mix 15.
Screening COC(=O)c1ccc(/C=N/NC(=O)c2ccccc2Cl)cc1 returned Biofilm kill mix 7.
CCOC(=O)c1sc2ncn(/N=C/c3ccc(O)cc3)c(=O)c2c1C was read as Biofilm kill mix 5.
CCOC(=O)N1CCN(C(=O)COc2ccc(Cl)c(C)c2)CC1 was read as Biofilm kill mix 7.
Cc1sc2ncnc(NCc3cccnc3)c2c1C was read as Biofilm kill mix 7.
Screening CC(OC(=O)c1ccc(NS(=O)(=O)c2ccc3[nH]c(=O)[nH]c3c2)cc1)C(=O)Nc1cccc(Cl)c1Cl (stereo unspecified) returned Biofilm kill mix 13.
Screening Cc1ccccc1Cn1nc(C)c(NC(=O)C(F)(F)F)c1C returned Biofilm kill mix 7.
For COC(=O)[C@@H]1CC[C@H](C)[C@@H](c2ccc(C)cc2)N1C(=O)c1ccc(/C=N/OCC[C@@H]2C=C[C@H](OC(C)=O)[C@@H](COC(C)=O)O2)cc1 the results were Biofilm kill mix 4.
Cc1nn(CC(=O)N2CCCc3ccccc32)c(C)c1[N+](=O)[O-] was read as Biofilm kill mix 4.
Screening CCOC(=O)c1ccc(/C=C2/C=C(c3ccccc3)N(c3ccc(Cl)c(C(=O)O)c3)C2=O)cc1 returned Biofilm kill mix 12.
`COc1ccc(S(=O)(=O)N2CCCCCC2)cc1N(C)S(=O)(=O)c1ccccc1` gave Biofilm kill mix 14.
`CC(NC(=S)Nc1ccc(S(=O)(=O)N2CCOCC2)cc1)C1CC2CCC1C2` (stereo unspecified) gave Biofilm kill mix 12.
Screening CC(=O)Nc1ccc(S(=O)(=O)NCCSCc2ccccc2Cl)cc1 returned Biofilm kill mix 5.
For Clc1ccc(-c2nnc(N3CCOCC3)o2)cc1 the results were Biofilm kill mix 14.
Screening COc1ccc(NC(=S)N(CCCN2CCOCC2)Cc2cn(C)c3ccccc23)cc1 returned Biofilm kill mix 9.
`C/C(=N\NC(=O)C12CCC(C)(C(=O)O1)C2(C)C)c1ccccc1O` (stereo unspecified) gave Biofilm kill mix 17.
COc1ccc(NCc2nnc(SCC(=O)Nc3ccc(OC)cc3)n2C)cc1 was read as Biofilm kill mix 11.
Screening Cc1ccc(S(=O)(=O)N2CCN(C(=O)CCC(=O)NCCc3ccc(F)cc3)CC2)cc1 returned Biofilm kill mix -10.
Screening O=C(CCc1nc2ccccc2s1)Nc1ccccc1 returned Biofilm kill mix 10.
CC(=O)Oc1ccccc1N(C(C)=O)S(=O)(=O)c1ccc(C)cc1 was read as Biofilm kill mix 12.
`COc1ccc(C(=O)OCc2c(C)noc2C)cc1` gave Biofilm kill mix 9.
Screening CCc1c(O)nc(SCC(=O)Nc2nc3ccccc3s2)n(-c2ccc(C)cc2)c1=O returned Biofilm kill mix 32.
CCNC(=S)NNC(=O)c1cc(-c2cccc(OC)c2)nc2ccccc12 was read as Biofilm kill mix 11.
Cc1ccc(C(=O)COC(=O)c2ccc(O)cc2)cc1 was read as Biofilm kill mix 8.
For Cc1cc(C)c(S(=O)(=O)N(C)c2ccccc2)c(C)c1 the results were Biofilm kill mix 15.
`CN(Cc1ccncc1)C1CC(=O)N(c2ccc(F)cc2)C1=O` (stereo unspecified) gave Biofilm kill mix -3.
For COC(=O)COc1ccc(S(=O)(=O)N2CCCCCC2)cc1 the results were Biofilm kill mix 19.
O=C(NCCCN1CCOCC1)/C(=C/c1cccnc1)NC(=O)c1ccccc1 was read as Biofilm kill mix 5.
Screening CC(=O)[C@@]1(O)CC[C@H]2[C@@H]3CCC4=CC(=O)CC[C@]4(C)[C@H]3[C@@H](O)C[C@@]21C returned Biofilm kill mix 3.
For Cc1nnc(SCC(=O)NNC(=O)c2ccco2)n1-c1cccc(Cl)c1 the results were Biofilm kill mix 2.
Screening CCCS(=O)(=O)c1nc(S(=O)(=O)c2ccc(C)cc2)c(NCc2ccco2)s1 returned Biofilm kill mix 19.
Screening COc1ccc(N=C2S/C(=C\c3ccc(OC(C)C(=O)O)c(OC)c3)C(=O)N2CCc2c[nH]c3ccccc23)cc1 (stereo unspecified) returned Biofilm kill mix 47.
O=C(c1cc([N+](=O)[O-])ccc1N1CCOCC1)N1CCCCC1 was read as Biofilm kill mix 18.
Screening O=C(c1cccc(S(=O)(=O)Nc2ccccc2Cl)c1)N1CCN(C(=O)c2ccco2)CC1 returned Biofilm kill mix 18.
`Cc1cc(=O)oc2cc(Nc3ccccc3)ccc12` gave Biofilm kill mix 10.
`O=C1CCCC2=C1C(c1cccs1)n1nc(SCc3ccc(C(=O)O)cc3)nc1N2` (stereo unspecified) gave Biofilm kill mix 15.
`Cn1c(=O)c2c(O)c(C=NCc3ccccc3)c(=O)n(C)c2n(C)c1=O` gave Biofilm kill mix 23.
O=C1CSC(=Nc2ccc(Cl)cc2)N1Cc1ccco1 was read as Biofilm kill mix 2.
CCCNC(=O)CCn1c(=S)oc2ccccc21 was read as Biofilm kill mix 24.
`Cc1ccccc1C(=O)NNC(=O)CCc1ccccc1` gave Biofilm kill mix -4.
For N#C/C(=C\C=C\c1ccccc1)C(=O)NCc1cccnc1 the results were Biofilm kill mix 15.
`COc1ccc(-n2c3c(cc(C(=O)NCc4ccco4)c2=O)C(=O)CC(C)(C)C3)cc1` gave Biofilm kill mix -1.
`CSc1nnc(CCCCCCCCc2nnc(SC)o2)o1` gave Biofilm kill mix 12.
For Cc1nonc1OCCNCc1c(C(=O)N(C)C)nc2ccc(Cl)cn12 the results were Biofilm kill mix 15.
For O=c1oc2ccccc2cc1-c1ccccc1 the results were Biofilm kill mix 3.
For Clc1ccc(C(c2ccccc2)N2CCN(c3ccccn3)CC2)cc1 (stereo unspecified) the results were Biofilm kill mix 16.
CCc1cccc(CC)c1NC(=O)CCCSc1nc2ccccc2s1 was read as Biofilm kill mix 7.
`COc1ccc(-c2ccc(=O)n(CC(=O)NC3CCc4ccccc43)n2)cc1OC` (stereo unspecified) gave Biofilm kill mix 12.
For CCc1ccc2nc(NC(=O)c3ccc(N4C(=O)CCC4=O)cc3)sc2c1 the results were Biofilm kill mix 12.
Screening COc1cccc(NC(=O)CCSc2ccc(C)cc2)c1 returned Biofilm kill mix 13.
Screening COc1ccccc1/C=N/NC(=O)C1=NNC(c2ccccc2)(c2ccccc2)C1 returned Biofilm kill mix 5.
For CN(CC(=O)Nc1cccc([N+](=O)[O-])c1)S(=O)(=O)c1ccccc1 the results were Biofilm kill mix 17.
For O=C(CNC(=S)NC(=O)C1CCCCC1)c1ccccc1 the results were Biofilm kill mix 22.
`Cc1ccccc1-n1c2nc(=O)n(C)c(=O)c-2cc2ccccc21` gave Biofilm kill mix 19.
Screening Cc1ccc(C(=O)N2CCN(c3ccccc3Cl)CC2)cc1[N+](=O)[O-] returned Biofilm kill mix 11.
Screening O=C(NC1CCCC1)c1cccc(Oc2ccccc2)c1 returned Biofilm kill mix 23.
Cc1sc2ncn(CC(=O)N3CCCCC3)c(=O)c2c1C was read as Biofilm kill mix 8.
O=C(SCC(O)C(O)CS)c1cccs1 (stereo unspecified) was read as Biofilm kill mix 4.
O=C(NCc1cccnc1)/C(=C/c1ccccc1)NC(=O)c1ccccc1 was read as Biofilm kill mix 17.
Screening O=C(COC(=O)/C=C/c1cccc([N+](=O)[O-])c1)NCCCN1CCCC1=O returned Biofilm kill mix 13.
Screening CCc1ccc(NC(=O)Cn2c(=O)n(CCC(=O)NC3CCN(Cc4ccccc4)CC3)c(=O)c3ccccc32)cc1 returned Biofilm kill mix 4.
For CC1(c2ccccc2)CC(C)(C)N2C(=O)/C(=C3\SC(=S)NC3=O)c3cccc1c32 (stereo unspecified) the results were Biofilm kill mix 6.
Screening COc1ccccc1-n1c(-c2ccccc2)c[n+]2c1CCc1ccccc1-2 returned Biofilm kill mix 14&5.
`Cc1ccc(NC(=S)N(Cc2ccc(Br)cc2)Cc2ccc(C(=O)O)cc2)cc1C` gave Biofilm kill mix 21.
`COC(=O)c1sc(S(=O)(=O)Nc2ccc(Br)cc2)c(C(=O)OC)c1C` gave Biofilm kill mix -15.
O=C(Nc1ccc(S(=O)(=O)Nc2ncccn2)cc1)C1COc2ccccc2O1 (stereo unspecified) was read as Biofilm kill mix 4.
`COC(=O)COC(=O)c1ccccc1NC(=O)c1ccccc1` gave Biofilm kill mix 12.
Screening COc1ccc(NS(=O)(=O)c2ccc(O)c(C(=O)OCC(=O)NC3CCCCC3)c2)cc1 returned Biofilm kill mix 10.
CC1=NN(C(C#N)c2ccc([N+](=O)[O-])cc2)C(C)(C)C1 (stereo unspecified) was read as Biofilm kill mix 20.
Screening Cc1n[nH]c(=S)n1-c1ccccc1 returned Biofilm kill mix 9.
`CCn1c(=O)c(C(=O)CN2c3ccccc3CC2C)c(N)n(Cc2ccccc2)c1=O` (stereo unspecified) gave Biofilm kill mix 20.
For Cc1ccc(-c2nnc(SCC(=O)N/N=C/c3ccccc3C(=O)O)n2-c2ccc(Cl)cc2)cc1 the results were Biofilm kill mix 22.
`Cc1ccc(NC(=O)CCSCCc2ccccn2)cc1` gave Biofilm kill mix 14.
CCCCCCC(=O)N/N=C/c1ccc(Br)cc1 was read as Biofilm kill mix 21.
For Cn1cnc2cc(NC(=O)c3cccs3)ccc21 the results were Biofilm kill mix -3.
`CN(C)Cc1nnnn1-c1cccc(-n2nnnc2CN(C)C)c1` gave Biofilm kill mix 15.
Screening Clc1cccc(-c2cc3nc4c(c(N5CCNCC5)n3n2)CCCC4)c1 returned Biofilm kill mix 11.
For O=C(Nc1ccccc1N1CCN(c2ccccc2)CC1)c1ccccc1F the results were Biofilm kill mix 10.
For Cc1ccc(S(=O)(=O)Nc2ccc(Cl)cc2)cc1NC(=O)Cn1cnc2c1c(=O)n(C)c(=O)n2C the results were Biofilm kill mix -4.
Screening C#CCOCCOCCOCCNc1nc(N2CCN(C(=O)[C@H]([C@@H](C)CC)n3cc([C@@H](N)CO)nn3)CC2)nc(N2CCN(C(=O)[C@H](Cc3ccc(O)cc3)n3cc([C@@H](N)C(C)CC)nn3)CC2)n1 (stereo partly specified) returned Biofilm kill mix 19.
CN(C(=O)CSc1ncc(C(F)(F)F)cc1Cl)c1c(N)n(Cc2ccccc2)c(=O)[nH]c1=O was read as Biofilm kill mix 4.
For O=C(CSCc1ccc(Cl)cc1)NCc1ccccn1 the results were Biofilm kill mix 17.
`Cc1nc(NC(=O)c2ccc(Cl)cc2)nc2cc3c(cc12)OCO3` gave Biofilm kill mix 14.
O=C(c1c[nH]c2ccccc12)N1CCN(Cc2ccccc2)CC1 was read as Biofilm kill mix -3.
CCc1ccc[n+](-c2[nH]c(=O)sc2/C=N/N=C(\[O-])CCn2c3ccccc3c3ccccc32)c1 was read as Biofilm kill mix 24.
For CCOC(=O)N1CCN(S(=O)(=O)c2ccc(C(=O)NNc3nc4c(C)cccc4s3)cc2)CC1 the results were Biofilm kill mix 19.
`COc1ccc(O)c(C2=Nc3ccccc3N=C(c3ccccc3)C2)c1` gave Biofilm kill mix 16.
For Cc1ccc(Nc2nc(CSc3nnc(-c4cccnc4)n3-c3ccccc3C)cs2)cc1 the results were Biofilm kill mix 1.
COc1ccccc1C1=NNC(=NCc2ccccc2)SC1 was read as Biofilm kill mix 10.
For Cc1ccc(NC(=O)c2ccco2)c([N+](=O)[O-])c1 the results were Biofilm kill mix 7.
Screening Cn1ncc(Br)c1C(=O)Nc1ccc(Br)cn1 returned Biofilm kill mix 7.
CN(C(=O)Cn1cc(C#N)c2ccccc21)c1ccccc1 was read as Biofilm kill mix 25.

Entries shown so far that contain an aryl thioether with sulfur outside any ring (12):
Screening O=C(COc1cccnc1[N+](=O)[O-])Nc1ccccc1Sc1ccccc1 returned Biofilm kill mix 10.
Screening Cn1cnnc1Sc1ccc(C(F)(F)F)cc1[N+](=O)[O-] returned Biofilm kill mix 15.
COc1ccc(NCc2nnc(SCC(=O)Nc3ccc(OC)cc3)n2C)cc1 was read as Biofilm kill mix 11.
Screening CCc1c(O)nc(SCC(=O)Nc2nc3ccccc3s2)n(-c2ccc(C)cc2)c1=O returned Biofilm kill mix 32.
For Cc1nnc(SCC(=O)NNC(=O)c2ccco2)n1-c1cccc(Cl)c1 the results were Biofilm kill mix 2.
`O=C1CCCC2=C1C(c1cccs1)n1nc(SCc3ccc(C(=O)O)cc3)nc1N2` (stereo unspecified) gave Biofilm kill mix 15.
`CSc1nnc(CCCCCCCCc2nnc(SC)o2)o1` gave Biofilm kill mix 12.
CCc1cccc(CC)c1NC(=O)CCCSc1nc2ccccc2s1 was read as Biofilm kill mix 7.
Screening COc1cccc(NC(=O)CCSc2ccc(C)cc2)c1 returned Biofilm kill mix 13.
For Cc1ccc(-c2nnc(SCC(=O)N/N=C/c3ccccc3C(=O)O)n2-c2ccc(Cl)cc2)cc1 the results were Biofilm kill mix 22.
CN(C(=O)CSc1ncc(C(F)(F)F)cc1Cl)c1c(N)n(Cc2ccccc2)c(=O)[nH]c1=O was read as Biofilm kill mix 4.
For Cc1ccc(Nc2nc(CSc3nnc(-c4cccnc4)n3-c3ccccc3C)cs2)cc1 the results were Biofilm kill mix 1.

This is a subset; rates above refer to the full screens.
